Source: PubChem BioAssay
Six1-Eya2 inh: qHTS Assay for Inhibitors of the Six1/Eya2 Interaction. Homeobox protein SIX1 (Homo sapiens) + Protein phosphatase EYA2 (Homo sapiens), …. AlphaScreen GST-Six1/His-Eya2 binding, biochemical; stronger effect = lower value; control for the full effect not named in the record. activity change, % (no concentration beside the values). hit rate 0.56% among 360,000. AID 651725, 2012; in the data active = activity change below about -65%; inconclusive = about -30% to -65%; inactive = above about -30%; also: % is scaled to controls: 0 for no effect and ±100 for the full control effect; compound concentration not given in the record
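GST-Six1 + His-Eya2 (5X stock: 250/500 nM); Tris pH 8.0, 300 mM NaCl, 0.05% BSA, 0.02% Tween 20; GSH donor/Ni acceptor beads; 1 h 37 °C dark; AlphaScreen readout.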
TRPML1 blocker: qHTS for Inhibitors of the Human Mucolipin Transient Receptor Potential 1 (TRPML1); TRPML1-inducible cells, Ca2+ dye fluorescence, FDSS; stronger effect = lower value; inhibition of EC80 agonist-evoked calcium signal; activity change, negative = inhibition, % (test concentration not listed); hit rate 0.02% among 390,000; AID 624415, 2012; in the data active means activity change below about -50%; inconclusive means about -30% to -50%; inactive means above about -30%;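 also: stimulus is agonist 54-4 at its EC80 concentration; % is scaled to controls: 0 for no effect and ±100 for the full control effect; compound concentration not given in the record; the text of the record puts the active cut at -80%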
Target sequence (Q9GZU1 whole entry, looked up): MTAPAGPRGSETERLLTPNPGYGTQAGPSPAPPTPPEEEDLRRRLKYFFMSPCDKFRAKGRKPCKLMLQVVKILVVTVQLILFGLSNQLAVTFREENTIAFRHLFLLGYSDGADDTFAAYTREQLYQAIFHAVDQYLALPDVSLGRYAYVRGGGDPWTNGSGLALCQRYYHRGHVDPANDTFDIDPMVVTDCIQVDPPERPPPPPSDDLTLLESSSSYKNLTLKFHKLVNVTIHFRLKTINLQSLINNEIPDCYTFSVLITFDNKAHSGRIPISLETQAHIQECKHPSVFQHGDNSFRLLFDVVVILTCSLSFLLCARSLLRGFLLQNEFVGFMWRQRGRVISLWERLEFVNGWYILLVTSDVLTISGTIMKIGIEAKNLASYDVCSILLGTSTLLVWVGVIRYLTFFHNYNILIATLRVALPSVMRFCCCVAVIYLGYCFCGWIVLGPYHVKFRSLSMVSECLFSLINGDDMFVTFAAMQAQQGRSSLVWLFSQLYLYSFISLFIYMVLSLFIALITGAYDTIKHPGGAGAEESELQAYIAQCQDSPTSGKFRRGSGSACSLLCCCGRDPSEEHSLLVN
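Tet-induced TRPML1-DL cells loaded with Ca8 no-wash calcium dye were read kinetically on FDSS. Compound addition was followed by EC80 agonist 54-4 (4 uM final); inhibition was read over 110 s.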
D2 PAM: Beta-Arrestin HTS for Positive Allosteric Modulators of the Human D2 Dopamine Receptor: Potentiators; DiscoveRx D2 beta-arrestin cells, luminescence, 90 min; 100% = 57 uM dopamine signal; D(2) dopamine receptor (Homo sapiens), P14416; hit rate 0.23% among 360,000; potentiation, % (test concentration not listed); active = potentiation of 50% or more; inconclusive = 30% to 50%; inactive = 30% or less;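 also: compound concentration not given in the record; tested on top of an EC20 dose of dopamine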
Target sequence (P14416 whole entry, looked up): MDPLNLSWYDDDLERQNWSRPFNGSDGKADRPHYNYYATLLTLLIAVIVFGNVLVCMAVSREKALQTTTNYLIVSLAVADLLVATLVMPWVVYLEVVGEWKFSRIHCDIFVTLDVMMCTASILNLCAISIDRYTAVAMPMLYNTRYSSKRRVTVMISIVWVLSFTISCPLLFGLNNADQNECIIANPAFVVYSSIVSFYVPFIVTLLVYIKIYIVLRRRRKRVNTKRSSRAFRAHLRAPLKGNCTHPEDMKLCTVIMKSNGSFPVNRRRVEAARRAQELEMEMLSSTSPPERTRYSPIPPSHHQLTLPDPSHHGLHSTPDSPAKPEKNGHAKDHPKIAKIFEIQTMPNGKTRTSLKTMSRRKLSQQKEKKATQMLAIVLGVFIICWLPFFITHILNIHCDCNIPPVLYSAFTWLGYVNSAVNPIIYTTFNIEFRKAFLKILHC
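D2 cells co-treated with compound plus 50 nM dopamine (EC20) for 90 min at 37 deg C to detect potentiation. Beta-arrestin recruitment was read as enzyme-fragment luminescence after 1 h at ambient temperature. Full response was set by 57 uM dopamine.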
TRPML1 agonist: qHTS for Agonists of the Human Mucolipin Transient Receptor Potential 1 (TRPML1) | activation, % (concentration not given with the values) | hit rate 0.12% among 410,000 | Mucolipin-1 (Homo sapiens), Q9GZU1 | TRPML1-expressing cells, Ca2+ dye fluorescence, FDSS; host cell line not named in the record; reference of the full effect not given here; in the data active = activation above about 50%; inconclusive = about 30% to 50%; inactive = below about 30%; also: 0% is about no effect; the text of the record puts the active cut at 80%
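Cells: TRPML1-DL, 1X Tet inducer, ~16 h at 37 degrees C/5% CO2. Dye: ABD Ca8 no-wash + quencher, 45-90 min RT. Read: 10 s baseline, compound add, 110 s agonist phase; 54-4 EC80 (4uM final), 110 s antagonist phase.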
D2 ag: Beta-Arrestin HTS for Positive Allosteric Modulators of the Human D2 Dopamine Receptor: Agonists | DiscoveRx PathHunter D2 beta-arrestin, luminescence, 90 min; 100% = 57 uM dopamine signal | activation, % (test concentration not listed) | hit rate 0.084% among 360,000; in the data active = activation above about 40%; inconclusive = about 15% to 40%; inactive = below about 15%; also: compound concentration not given in the record; the text of the record calls up to 30% inactive
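Agonist mode: compounds alone added to overnight-plated D2 PathHunter cells for 90 min at 37 C, with 57 uM final dopamine (EC100) defining full response. Beta-arrestin recruitment detected by chemiluminescent reagent, read after 1 h at ambient temperature.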
PINK1 expr mod: A Quantitative High throughput Screen to Identify Chemical Modulators of PINK1 Expression. PINK1 immunofluorescence, high-content cytometry, 24 h. hit rate 0.2% among 410,000. AID 624263, 2012. Potency, µM (series often up to 76.6 µM), without a hit: top-dose activation (PINK1 increase), usual class: activators; active = well fitted activation curve with a large enough effect; inconclusive = small, poorly fitted or top-dose-only effect; inactive = flat fitted curve, though single readings scatter; cell line not stated here;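 also: potency is read from the fitted curve at half-maximal effect; % of control where 0% means no effect; nearly all actives have a fitted effect of over 65% in size; a mitochondrial uncoupler was the plate control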
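Decision-based qHTS: stable cells, 24 h exposure to five compound concentrations, CCCP as control. Fixed cells stained for PINK1 plus nuclear, mitochondrial and cell markers, cytometer read.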
* = called active by the depositor; [ ] = another dose, or the depositor's remark.

Results for CCOC(=O)c1ccc(-n2c(=O)[nH]c3ccccc3c2=O)cc1 ?
Six1-Eya2 inh: 9.8; TRPML1 blocker: 4.0; D2 PAM: -6.7; TRPML1 agonist: 0.0; D2 ag: -2.0; PINK1 expr mod: 0.6%

How did Cc1ccc(S(=O)(=O)N2CCOCC2)cc1NCC(=O)Nc1ccc(OC(F)(F)F)cc1 do in these assays?
Six1-Eya2 inh: 3.6; TRPML1 blocker: -14.2; D2 PAM: -9.9; TRPML1 agonist: 0.8; D2 ag: 3.4; PINK1 expr mod: inconclusive

What do the screens show for `COc1ccccc1N(CC(=O)Nc1cccc(C(F)(F)F)c1)S(C)(=O)=O`?
Six1-Eya2 inh: -3.1; TRPML1 blocker: -5.8; D2 PAM: -6.1; TRPML1 agonist: 2.6; D2 ag: 0.1; PINK1 expr mod: -1.3%

How did Cc1cccc(NC(=O)c2ccc(S(=O)(=O)N3CCCCC3)cc2)n1 do in these assays?
Six1-Eya2 inh: 2.7; TRPML1 blocker: -5.2; D2 PAM: -2.6; TRPML1 agonist: -0.9; D2 ag: 0.4; PINK1 expr mod: 2.8%

How did CCN(CC)S(=O)(=O)c1ccc2nc(SC)sc2c1 do in these assays?
Six1-Eya2 inh: 8.2; TRPML1 blocker: -2.5; D2 PAM: -4.7; TRPML1 agonist: -0.3; D2 ag: -1.6; PINK1 expr mod: 0.0%[38.3 µM]

How did O=C(NCc1ccccn1)C1CCN(Cc2cccc(OCc3ccccc3)c2)CC1 do in these assays?
Six1-Eya2 inh: -16.1; TRPML1 blocker: -18.9; D2 PAM: -6.3; TRPML1 agonist: 0.9; D2 ag: -0.7; PINK1 expr mod: 0.0%

How did O=C(CSc1ncn[nH]1)NCCOc1ccccc1 do in these assays?
Six1-Eya2 inh: 1.6; TRPML1 blocker: -2.3; D2 PAM: -8.4; TRPML1 agonist: 0.0; D2 ag: -3.1; PINK1 expr mod: 1.7%

Results for COC(=O)c1ccc[n+](CC(=O)c2ccc(Br)cc2)c1 ?
Six1-Eya2 inh: 1.1; TRPML1 blocker: 15.1; D2 PAM: -20.7; TRPML1 agonist: 0.5; D2 ag: -3.3; PINK1 expr mod: 3.7%

Results for CCOC(=O)C1C(c2ccc3c(c2)OCO3)NC(=O)NC1(O)C(F)(F)F (stereo unspecified) ?
Six1-Eya2 inh: -0.4; TRPML1 blocker: 46.2; D2 PAM: -2.1; TRPML1 agonist: 0.3; D2 ag: -2.2; PINK1 expr mod: 3.2%

What do the screens show for `COCCN(C(=O)COC(=O)/C=C/c1cccs1)c1c(N)n(Cc2ccccc2)c(=O)[nH]c1=O`?
Six1-Eya2 inh: 0.2; TRPML1 blocker: 31.9; D2 PAM: -5.2; TRPML1 agonist: -0.4; D2 ag: -2.6; PINK1 expr mod: -1.9%

How did COc1ccc(C)cc1NC(=O)COC(=O)c1c(-c2ccccc2)noc1C do in these assays?
Six1-Eya2 inh: 3.4; TRPML1 blocker: 23.5; D2 PAM: -7.6; TRPML1 agonist: 1.1; D2 ag: -3.1; PINK1 expr mod: 2.3%

Results for CC(=O)NC1(C(F)(F)F)C(=O)Nc2c1c(=O)[nH]c(=O)n2CCc1ccccc1 (stereo unspecified) ?
Six1-Eya2 inh: -2.6; TRPML1 blocker: -5.1; D2 PAM: -5.6; TRPML1 agonist: 0.2; D2 ag: -5.3; PINK1 expr mod: -0.6%

Results for COc1ccccc1C(=O)Nc1cccc2nc(C)ccc12 ?
Six1-Eya2 inh: 3.5; TRPML1 blocker: 5.1; D2 PAM: -23.4; TRPML1 agonist: -0.6; D2 ag: 1.9; PINK1 expr mod: 1.3%

Results for Cc1ccc(N2CC(C(=O)Nc3ccc4c(c3)OCCO4)CC2=O)cc1C (stereo unspecified) ?
Six1-Eya2 inh: -4.8; TRPML1 blocker: -7.4; D2 PAM: 7.0; TRPML1 agonist: 0.4; D2 ag: 3.9; PINK1 expr mod: -2.0%

How did CCS(=O)(=O)c1ccc(N=Nc2ccc(O)c3ncccc23)c(OC)c1 do in these assays?
Six1-Eya2 inh: -83.2*; TRPML1 blocker: 18.1; D2 PAM: -7.2; TRPML1 agonist: 0.1; D2 ag: 1.5; PINK1 expr mod: 14.1µM*

Results for CCN(CC(=O)Nc1ccc([N+](=O)[O-])cc1OC)CC(=O)NC(C)(C)C ?
Six1-Eya2 inh: 0.0; TRPML1 blocker: -10.7; D2 PAM: -5.3; TRPML1 agonist: -0.7; D2 ag: 4.4; PINK1 expr mod: 0.5%

Results for COc1ccc(CCN2C(=O)CSC2c2ccc(F)cc2)cc1 (stereo unspecified) ?
Six1-Eya2 inh: 2.3; TRPML1 blocker: 1.5; D2 PAM: -3.1; TRPML1 agonist: 1.3; D2 ag: 1.3; PINK1 expr mod: -0.4%

Results for CC(=O)c1cccc(NS(=O)(=O)c2csc(C(N)=O)c2)c1 ?
Six1-Eya2 inh: 3.4; TRPML1 blocker: -2.4; D2 PAM: -3.6; TRPML1 agonist: -0.6; D2 ag: 2.1; PINK1 expr mod: 2.0%

What do the screens show for `COc1ccc(-c2nnc(SCc3nnc(-c4ccc(Cl)cc4)o3)n2-c2ccccc2)cc1`?
Six1-Eya2 inh: -3.9; TRPML1 blocker: 5.5; D2 PAM: -1.1; TRPML1 agonist: 2.1; D2 ag: 0.4; PINK1 expr mod: -1.8%

What do the screens show for `O=C(COc1c(F)c(F)cc(F)c1F)NNC(=O)CC1CCS(=O)(=O)C1` (stereo unspecified)?
Six1-Eya2 inh: -9.9; TRPML1 blocker: 0.2; D2 PAM: -3.0; TRPML1 agonist: 0.8; D2 ag: -2.4; PINK1 expr mod: -0.6%

The final two compounds of the part above lead into the next:
What do the screens show for `COc1ccc(-c2nnc(SCc3nnc(-c4ccc(Cl)cc4)o3)n2-c2ccccc2)cc1`?
Six1-Eya2 inh: -3.9; TRPML1 blocker: 5.5; D2 PAM: -1.1; TRPML1 agonist: 2.1; D2 ag: 0.4; PINK1 expr mod: -1.8%

What do the screens show for `O=C(COc1c(F)c(F)cc(F)c1F)NNC(=O)CC1CCS(=O)(=O)C1` (stereo unspecified)?
Six1-Eya2 inh: -9.9; TRPML1 blocker: 0.2; D2 PAM: -3.0; TRPML1 agonist: 0.8; D2 ag: -2.4; PINK1 expr mod: -0.6%

How did CCCCNC(=O)C1(C)CCCCN1C(=O)c1cc(OC)ccc1Br (stereo unspecified) do in these assays?
Six1-Eya2 inh: 2.8; D2 PAM: 2.1; TRPML1 agonist: -0.6; D2 ag: -6.7; PINK1 expr mod: 2.4%

Results for COCCCNC(=O)Cn1ccc(NC(=O)OCc2ccccc2)nc1=O ?
Six1-Eya2 inh: -2.4; TRPML1 blocker: -9.6; D2 PAM: -2.2; TRPML1 agonist: -0.3; D2 ag: -2.3; PINK1 expr mod: 2.8%

How did COc1cc2c(cc1NC(=O)C(C)Sc1ccc(NC(C)=O)cc1)oc1ccccc12 (stereo unspecified) do in these assays?
Six1-Eya2 inh: -11.1; TRPML1 blocker: -7.4; D2 PAM: -7.3; TRPML1 agonist: -0.4; D2 ag: 5.1; PINK1 expr mod: 1.6%

Results for COc1ccc(CCNC(=O)c2ccc(Cn3c(=O)[nH]c4cc(OC)c(OC)cc4c3=O)cc2)cc1OC ?
TRPML1 blocker: -13.6; TRPML1 agonist: -0.6; PINK1 expr mod: 2.8%

What do the screens show for `COc1cc(/C=N/N(C)C)ccc1OC(=O)c1cccs1`?
Six1-Eya2 inh: inconclusive; TRPML1 blocker: 13.6; D2 PAM: -9.6; TRPML1 agonist: -1.0; D2 ag: 3.0; PINK1 expr mod: 0.2%

What do the screens show for `CN(C)S(=O)(=O)n1cnc([C@@H]2[C@H]3C(=O)OC[C@@H]3C[C@@]23N=CN(Cc2ccccc2)C3=O)c1`?
Six1-Eya2 inh: 2.1; TRPML1 blocker: 3.0; D2 PAM: -3.3; TRPML1 agonist: -0.4; D2 ag: -4.1; PINK1 expr mod: -0.1%

What do the screens show for `O=C(OCC(=O)N1CCN(c2ccccc2)CC1)c1ncc(Cl)c(Cl)c1Cl`?
Six1-Eya2 inh: 7.1; TRPML1 blocker: 2.9; D2 PAM: -23.5; TRPML1 agonist: 1.9; D2 ag: -1.0; PINK1 expr mod: -0.7%

Results for C/C(=N\Nc1nccnc1Cl)c1ccc(Br)cc1 ?
Six1-Eya2 inh: -10.1; TRPML1 blocker: 17.0; D2 PAM: -0.3; TRPML1 agonist: 0.3; D2 ag: 4.1; PINK1 expr mod: -1.0%

What do the screens show for `Cc1ccccc1NC(=O)CSc1nc(=O)n(CCN2CCOCC2)c2c1CCC2`?
TRPML1 blocker: -10.6; TRPML1 agonist: -0.7; PINK1 expr mod: 0.6%

What do the screens show for `CCc1nnc(NC(=O)C2CCCO2)s1` (stereo unspecified)?
Six1-Eya2 inh: 0.4; TRPML1 blocker: 1.8; D2 PAM: -15.5; TRPML1 agonist: 0.0; D2 ag: -3.7; PINK1 expr mod: 1.8%

Results for O=C(CN1CCc2[nH]c3ccccc3c2C1)N1CCCCC1 ?
Six1-Eya2 inh: -3.2; TRPML1 blocker: -11.9; D2 PAM: -28.8; TRPML1 agonist: 0.9; D2 ag: -2.2; PINK1 expr mod: 2.7%

How did Fc1ccc(Br)cc1C1C=C(c2cccnc2)Nc2ncnn21 (stereo unspecified) do in these assays?
Six1-Eya2 inh: 3.6; TRPML1 blocker: -5.0; D2 PAM: -15.2; TRPML1 agonist: 3.7; D2 ag: -9.0; PINK1 expr mod: 2.9%

Results for CC(C)(C)S(=O)(=O)N1Cc2cc(=O)n(Cc3ccccc3)c(CCO)c2[C@@H]1CCO ?
Six1-Eya2 inh: -0.5; TRPML1 blocker: -1.7; TRPML1 agonist: 0.3; D2 ag: -1.9; PINK1 expr mod: -0.4%

How did O=C1C(Cl)=C(NC2CCCCC2)C(=O)N1c1ccc(Cl)cc1 do in these assays?
Six1-Eya2 inh: 34.0; TRPML1 blocker: 17.0; D2 PAM: -15.3; TRPML1 agonist: 0.2; D2 ag: 0.9; PINK1 expr mod: 9.6%

What do the screens show for `COC(=O)c1cccc(F)c1C(=O)c1cccc2ccccc12`?
Six1-Eya2 inh: 11.1; TRPML1 blocker: 4.7; D2 PAM: 7.7; TRPML1 agonist: 1.1; D2 ag: 4.3; PINK1 expr mod: 6.5%

What do the screens show for `CC(C)NC(=O)NC(=O)CSc1nnc(COc2ccccc2F)n1C(C)C1CC2CCC1C2` (stereo unspecified)?
Six1-Eya2 inh: -3.8; TRPML1 blocker: -3.8; D2 PAM: -7.7; TRPML1 agonist: 1.7; D2 ag: -5.5; PINK1 expr mod: 25.0%[38.3 µM]
